2A StopGo = FMDV 2A StopGo reporter, luciferase signal; 410,000 compounds, 1.2% hits; AID 1159524; human cells with a luciferase reporter of 2A StopGo recoding; control for the full effect not named in the record; Potency, µM (top dose mostly 57.9 µM), inactives show at the top dose signal change, negative = less light; active = well fitted falling curve with a large enough effect; inconclusive = small, poorly fitted or top-dose-only effect; inactive = no such curve, though single readings can be large or run the other way; tested in HEK293T cells; further: nearly all actives have a fitted effect of over 45% in size; luciferase light after 4 h
RE007 growth inh = less growth of the S. pombe RE007 Vpr strain. S. pombe RE007 Vpr strain, BacTiter-Glo ATP luminescence, 24 h; control for the full effect not named in the record. Potency, µM (series often up to 92.2 µM), inactives show top-dose activity change, negative = less growth. 360,000 compounds, 0.21% hits. AID 651644; active = well fitted falling curve with a large enough effect; inconclusive = small, poorly fitted or top-dose-only effect; inactive = no such curve, though single readings can be large or run the other way;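 further: nearly all actives have a fitted effect of over 50% in size; the assay follows cell death caused by Vpr and the record does not say whether a fall means rescue or toxicity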
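Fission yeast RE007 carrying one integrated HIV-1 vpr copy, seeded at OD 0.01 in PMG+AL medium with 23 nL pinned compound. Grown 24 h at 30 degrees; viability read by BacTiter-Glo luminescence after 5 min.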
* = called active by the depositor; ? = inconclusive; [ ] = another dose, or the depositor's remark. On the % scale 0 is the no-effect control and ±100 the full control effect; potency means the concentration at half of the fitted maximal effect. These rows are one share of the data. The share of hits here may be higher or lower than overall.

A first look (4 entries):
Values run as follows: RE007 growth inh, 2A StopGo
CCCCCn1nnnc1-c1nc2cc(C)c(C)cc2[nH]c1=O
    -8%, -28%
Fc1ccc(NC(=S)N2Cc3ccccc3-n3nncc3C2)cc1
    19%, 7%
Cc1ccc(S(=O)(=O)Nc2ccccc2C(C(=O)OC(C)(C)C)C(=O)OC(C)(C)C)cc1
    -20%, 7%
O=C1N[C@@H](Cc2ccccc2)C(=O)N2[C@@H]3N(S(=O)(=O)c4ccccc4)c4ccccc4[C@]3(Br)C[C@@H]12
    -10%, 0%

Results, from the first entry:
Values run as follows: RE007 growth inh, 2A StopGo
CCCCCn1nnnc1-c1nc2cc(C)c(C)cc2[nH]c1=O
    -8%, -28%
Fc1ccc(NC(=S)N2Cc3ccccc3-n3nncc3C2)cc1
    19%, 7%
Cc1ccc(S(=O)(=O)Nc2ccccc2C(C(=O)OC(C)(C)C)C(=O)OC(C)(C)C)cc1
    -20%, 7%
O=C1N[C@@H](Cc2ccccc2)C(=O)N2[C@@H]3N(S(=O)(=O)c4ccccc4)c4ccccc4[C@]3(Br)C[C@@H]12
    -10%, 0%
CN1C(C)(C)CC(O)(C(=O)O)CC1(C)C
    10%, -3%
OC(c1ccc(Cl)c(F)c1)c1ncc(-c2cccc3ccccc23)[nH]1 (stereo not given)
    7%[18.4 µM], 49%[activator]
Cc1cccc(-c2cnc(C(O)c3ccc(Cl)cc3C)[nH]2)c1 (stereo not given)
    -16%[18.4 µM], 20%
CC(C)CC1C(=O)N(Cc2cn(Cc3ccco3)nn2)CCS(=O)(=O)N1Cc1ccc(-c2ccc(F)cc2)cc1 (stereo not given)
    10%, ?
Cc1cc(C)n2c(NCc3ccccc3)c(-c3cc4ccccc4o3)nc2n1
    ?, -23%
COC(=O)C1=C(c2ccccc2)C[C@@H]2CC[C@H]1N2C(=O)NCc1ccc(F)cc1
    -10%, -18%
CN(CC(=O)Nc1cccc(Cl)c1)S(=O)(=O)/C=C/c1ccccc1
    -8%, -1%
Cc1ccccc1OCC(=O)OCC(=O)NC12CC3CC(CC(C3)C1)C2
    16%, -11%
O=C(NCc1ccccc1)C(c1ccc(C(F)(F)F)cc1)n1c(=O)c(-c2ccccc2)nc2ccccc21 (stereo not given)
    1%, 11%
C[C@H](NCCc1ccc(O)cc1)[C@H](O)c1ccc(O)cc1
    -8%[18.4 µM], -14%
CCc1c(-c2ccccc2)ncn1Cc1cccc(-c2ccccc2)c1
    -13%, ?

As entered above:
Entry for Cc1cc(C)n2c(NCc3ccccc3)c(-c3cc4ccccc4o3)nc2n1 in 2A StopGo: -23%
Entry for Fc1ccc(NC(=S)N2Cc3ccccc3-n3nncc3C2)cc1 in RE007 growth inh: 19%
Entry for CN(CC(=O)Nc1cccc(Cl)c1)S(=O)(=O)/C=C/c1ccccc1 in RE007 growth inh: -8%
Entry for CN1C(C)(C)CC(O)(C(=O)O)CC1(C)C in RE007 growth inh: 10%
Entry for C[C@H](NCCc1ccc(O)cc1)[C@H](O)c1ccc(O)cc1 in 2A StopGo: -14%
Entry for CCCCCn1nnnc1-c1nc2cc(C)c(C)cc2[nH]c1=O in 2A StopGo: -28%
Entry for OC(c1ccc(Cl)c(F)c1)c1ncc(-c2cccc3ccccc23)[nH]1 (stereo not given) in RE007 growth inh: 7%[18.4 µM]

Other compounds.
Values run as follows: RE007 growth inh, 2A StopGo
COC(=O)C1=C(C)N(CCCC(=O)O)C(=O)NC1c1ccc(Cl)cc1 (stereo not given)
    -1%, -2%
O=C1c2ccccc2NC(c2ccc(Br)s2)N1O (stereo not given)
    ?, 3%
O=C1c2ccccc2C(c2nnnn2Cc2ccccc2)N1CCCn1ccnc1 (stereo not given)
    ?, 0%
C[C@@H]1CN([C@@H](C)CO)C(=O)CCCn2nncc2CO[C@H]1CN(C)C(=O)c1ccc2ccn(C)c2c1
    -20%, 3%
O=S(=O)(c1ccccc1)C1CN1c1c(F)c(F)c(F)c(F)c1F (stereo not given)
    0%, 0%
CCCCNC(=O)C[C@@H]1C[C@@]2(C(=O)OC)CC(C)(C)CC=C2N(Cc2cccc3ccccc23)C1=O
    0%, 4%
CSc1ccc(CN2CCC(C)(Oc3ccccc3F)C2)cc1 (stereo not given)
    -15%[18.4 µM], -14%
COc1ccccc1CNc1nc(NCc2cccs2)nc2ccsc12
    -23%, ?
O=C1NC[C@@H](CCCCN2C[C@H](Cc3ccc(O)cc3)N(CCC3CCCCC3)C(=O)C2=O)N(Cc2ccccc2)C1=O
    0%, -10%
Cc1ccc(Nc2cc(=O)n(C)c(=O)[nH]2)cc1C
    6%, -23%
CCCCNC(=O)c1onc(CSc2ccc(Cl)cc2)c1C(=O)NCCCC
    11%, -16%
CC(C)NC(=O)N(C)C[C@@H]1Oc2ncc(-c3cccc(C#N)c3)cc2C(=O)N([C@H](C)CO)C[C@@H]1C
    -10%, -8%
CC(C)c1ccccc1NC(=O)Nc1nnc([C@@H]2C[C@H](O)[C@@H](CO)O2)s1
    -4%, 8%
O=C(NCCCN1CCCC1=O)C(=O)NCC1OCCCN1S(=O)(=O)c1ccccc1 (stereo not given)
    4%, -17%
O[C@H]1CN(Cc2cccs2)[C@@H](c2ccc(Cl)cc2)C[C@@H]1n1cc(C2CC2)nn1
    -3%, -16%

Compound profiles, from the list above. Order of values: RE007 growth inh | 2A StopGo
`C[C@H](NCCc1ccc(O)cc1)[C@H](O)c1ccc(O)cc1` is entered as -8%[18.4 µM] | -14%
`OC(c1ccc(Cl)c(F)c1)c1ncc(-c2cccc3ccccc23)[nH]1` (stereo not given) is entered as 7%[18.4 µM] | 49%[activator]
`O=C1NC[C@@H](CCCCN2C[C@H](Cc3ccc(O)cc3)N(CCC3CCCCC3)C(=O)C2=O)N(Cc2ccccc2)C1=O` is entered as 0% | -10%
`COc1ccccc1CNc1nc(NCc2cccs2)nc2ccsc12` is entered as -23% | ?

New compounds follow
Values run as follows: RE007 growth inh, 2A StopGo
Fc1cccc(Cc2c(C3CCCCC3)nc3ccc(Cl)cn23)c1
    -22%, -2%
COc1ccccc1Cc1c(C(C)(C)C)nc2c3ccccc3ccn12
    ?, ?
CCOC(=O)C1(c2ccccc2)CCCNC1=O (stereo not given)
    22%, ?
O=C(/C=C/[C@H]1O[C@@H](n2ccc(=O)[nH]c2=O)[C@H](O)[C@@H]1O)NC(c1ccccc1)c1ccccc1
    10%, -16%
CC(C)C[C@H]1CN([C@@H](Cc2ccc(O)cc2)CN2CCC[C@@H]2CN2C(=S)NC[C@@H]2Cc2ccccc2)C(=S)N1CCc1ccccc1
    -18%, -8%
CC(C)(C)Cc1c(-c2cccc(Cl)c2)nc2ccc(Cl)cn12
    -20%, -2%
Cc1nc2ccc(C(=O)N3CCN(c4ccccc4)CC3)cn2c1N(C)C(=O)CCc1ccccc1
    -16%, -21%
CCCNC(=O)C1(C)CCCN(Cc2ccc(C(=O)OCC)o2)C1 (stereo not given)
    -19%[18.4 µM], -21%
CCOc1ccc(NC(=O)CN(C)C(=O)c2c(C)nn(Cc3ccccc3Cl)c2C)cc1OCC
    12%, -10%
Cc1cc(Br)cn2c(Cc3cccc(F)c3)c(-c3ccc(F)cc3)nc12
    -26%, -17%
CCOC(=O)c1cn(Cc2ccccc2)c(C(=O)OC(C)(C)C)c1O
    -3%, -10%
Cc1c(C(=O)NCCC#N)sc(=O)n1Cc1ccc(F)cc1
    -6%[18.4 µM], -13%
O=C(Nc1ccc(Cl)cc1)c1nc[nH]c1C(=O)Nc1ccccc1F
    -12%, -19%
OC(c1ccccc1)c1ncc(-c2cccc(F)c2)[nH]1 (stereo not given)
    -14%, 0%
CC(C)NC(=O)c1ccc(CONC(=O)OCc2ccccc2)cc1
    10%, 0%
O=S1(=O)N[C@H](Cc2ccccc2)COc2cc(N3CC[C@H](O)C3)ccc21
    15%, -4%
CCOc1ccc(-c2nnc(NC(=O)COc3ccccc3F)o2)cc1
    2%, 119%[activator]
COc1ccc(F)cc1-c1cc(NC=O)c2ncc(-c3cccc(C(=O)N(C)C)c3)n2c1
    7%, ?
CS(=O)(=O)N(CC(=O)N1CCCC1)c1cccc(C(F)(F)F)c1
    3%, -13%
CN[C@H](C)C(=O)NC[C@H]1O[C@@H](n2cc(C)c(=O)[nH]c2=O)C[C@@H]1O
    33%, ?
O=C(NCCOc1ccccc1)C1C(=O)Nc2ccccc2C(=O)N1C1CCCCC1 (stereo not given)
    4%, -21%
COc1cccc(-c2oc3c(c2C#CC2(N)CCCCC2)C(O)CCC3)c1 (stereo not given)
    -20%, ?
COc1ccc(-c2cncnc2N)cc1OC
    1%, ?
C[C@@H]1CCCCO[C@H](CN(C)S(=O)(=O)c2ccccc2)[C@@H](C)CN([C@H](C)CO)C(=O)c2cc(NC(=O)Cc3ccccc3)ccc2O1
    -2%, 0%
CC(=O)NC(c1ccc(F)c(F)c1)c1nc(-c2ccncc2)cs1 (stereo not given)
    -2%[18.4 µM], -18%
Cc1cc(O)ccc1Nc1cc(-c2cccc(N)c2)ncn1
    2%, 22%
Cc1ccc(S(=O)(=O)N2CCN(C(=O)c3cc(S(=O)(=O)N4CCOCC4)c(Cl)cc3Cl)CC2)cc1
    18%, -10%
Cc1cccc(S(=O)(=O)NC(=O)C2(C)CCN2C(=O)CCc2ccccc2)c1 (stereo not given)
    -6%[18.4 µM], -12%
C[C@@H]1CCCCO[C@@H](CN(C)S(C)(=O)=O)[C@@H](C)CN([C@H](C)CO)C(=O)c2cc(N(C)C)ccc2O1
    14%, -3%
N#Cc1ccc(Nc2nc(NCc3ccccc3)nc3ccsc23)cc1
    -15%[18.4 µM], -19%
COc1ccc(-c2coc3c(C(=O)NC(C)C)cccc23)c(C)c1
    -1%, -25%
COc1ccc2c(c1)CO[C@@]21O[C@H](CCO)C[C@H](O)[C@H]1O
    -2%, -13%
CCOC1=C2[C@H](c3ccccc3F)N(S(=O)(=O)c3ccc(C)cc3)C[C@H]2n2c(=O)n(-c3ccccc3)c(=O)n2C1
    1%, 25%
CCO/C(C)=N/Oc1cncnc1
    -8%, -16%
COc1ccc(NC(=O)c2sc(=O)n(Cc3ccc(SC)cc3)c2C)cc1OC
    13%[18.4 µM], -9%
C[C@H]1CN([C@@H](C)CO)C(=O)CCCn2cc(nn2)CO[C@@H]1CN(C)C(=O)CCC(F)(F)F
    -3%, -4%
CC(C)C1Cc2[nH][nH]c(=O)c2C(C2CC2)O1 (stereo not given)
    4%, -14%
C[C@H](CO)N1C[C@H](C)[C@H](CN(C)S(=O)(=O)c2cccc(C#N)c2)OCc2cnnn2CCCC1=O
    22%, -24%
CC1CCCCC12NC(=O)N(CC(=O)Nc1cccnc1)C2=O (stereo not given)
    -13%, -22%
C[C@@H]1CN([C@H](C)CO)C(=O)CCCn2cc(nn2)CO[C@H]1CN(C)C(=O)c1cc(-c2ccccc2)on1
    4%, -17%
CCc1nc2c(OCc3ccc(C(F)(F)F)cc3)cccn2c1N(C)C(=O)C1CC1
    -6%, ?
CCCS(=O)(=O)NC(=O)C1(C)CCCN(C(=O)c2cccc(C(F)(F)F)c2)C1 (stereo not given)
    -7%[18.4 µM], -16%
O=C1NC(Cc2ccc(O)cc2)c2nc3cc(Cl)ccc3c(=O)n2-c2cc(Cl)ccc21 (stereo not given)
    -16%, ?
O=C1[C@H]2[C@H](C=CC[C@H]2C(=O)N2CCN(c3ccccc3)CC2)CCN1Cc1ccccc1
    0%, -8%
CN(C)CCN1CCN(C(c2ccnc3ccccc23)c2nnnn2-c2ccc3c(c2)OCCO3)CC1 (stereo not given)
    5%, -2%
Cn1cc(-c2coc3c(C(=O)Nc4ccccc4)cccc23)cn1
    -22%[18.4 µM], 13%
CN(Cc1ccccc1)C(=O)[C@@H]1CCCN1C(=O)OC(C)(C)C
    8%, -16%

Screening data: PubChem BioAssay, National Center for Advancing Translational Sciences (NCATS)
